Vaccinia Venus = qHTS for Stage-Specific Inhibitors of Vaccinia Orthopoxvirus: Venus Reporter Primary qHTS; Vaccinia virus Venus reporter expression, fluorescence; Potency, µM (doses to about 36.5 µM), without a hit: top-dose activity change, negative = inhibition, most hits filed as inhibitors; 0.46% of 330,000 active; AID 720580, 2013; active means well fitted inhibition curve with a large enough effect; inconclusive means small, poorly fitted or top-dose-only effect; inactive means no such curve, though single readings can be large or run the other way; tested in A549 cells; also: nearly all actives have a fitted effect of over 30% in size; inactives centre near -10
Vaccinia mCherry = qHTS for Stage-Specific Inhibitors of Vaccinia Orthopoxvirus: mCherry Reporter Primary qHTS; Potency, µM (top dose mostly 36.5 µM), inactives show at the top dose activity change, negative = inhibition, most hits filed as inhibitors; AID 720579, 2013; Vaccinia virus mCherry reporter infection, fluorescence; about a quarter of the inactives have no number; 0.63% of 310,000 active; active = well fitted inhibition curve with a large enough effect; inconclusive = small, poorly fitted or top-dose-only effect; inactive = no such curve, though single readings can be large or run the other way; tested in A549 cells; also: nearly all actives have a fitted effect of over 35% in size; inactives centre near -10
Numbers without * were called inactive; i = inactive; ? = inconclusive; / = no result given; & = joins results of further samples; [ ] = remark or other dose. % is scaled to controls: 0 for no effect and ±100 for the full control effect; potency is read from the fitted curve at half-maximal effect.

SMILES	Vaccinia Venus	Vaccinia mCherry
Cc1ccc(N(Cc2ccccc2)C(=O)c2ccc(S(=O)(=O)N3CCOCC3)cc2)cc1	-14%	-5%
O=C(Nc1ccc(F)cc1)C1CC(=O)n2c(nc3ccccc32)N1 (centres undefined)	-14%	-21%
Cn1c(SCC(=O)NNC(=O)Nc2ccc(Cl)cc2)nnc1-c1ccccc1	-3%	i
Cc1ncoc1C(=O)NC1CCCc2c1cnn2-c1ccc(C(C)(C)C)cc1 (centres undefined)	-29%	-18%
COCCN(C(=O)c1cccc(N2C(=O)CCC2=O)c1)c1nc(-c2ccc([N+](=O)[O-])cc2)cs1	-25%	-3%
Cc1ccc(-c2nc(C(=O)NCCCN(C)C)cc3c2[nH]c2ccccc23)cc1	?	?
O=C(C1CCN(S(=O)(=O)c2ccc(Cl)cc2)CC1)N1CCCCCCC1	-12%	-13%
O=C(NCC1(N2CCOCC2)CCCCC1)c1cccc(S(=O)(=O)N2CCc3ccccc3C2)c1	?	-21%
Cc1ccc(-c2onc(C)c2C)cc1S(=O)(=O)N1CCC(C)CC1	?	-27%
COc1cccc(C2CC(c3cccs3)=NN2C(=O)c2ccco2)c1O (centres undefined)	4%	-9%
COc1ccc(CSc2nnc3[nH]c(=O)cc(N)n23)cc1	-1%	-6%
Cc1nc(S(=O)(=O)c2ccc(Br)cc2)nc2c1CCC2	-20%	-14%
O=S1(=O)C[C@@H](N2CCC(Cc3ccccc3)CC2)[C@H](COCc2ccccc2)N1	-20%	-17%
CCN1CC(CN(C)Cc2cn(-c3ccc(C)cc3)nc2-c2ccc(F)cc2)CC1=O (centres undefined)	-14%	-17%
Cn1cc(-c2cc3n(n2)CCC(=O)N3CCCC(=O)NCc2ccccc2)c2ccccc21	-8%	-19%
Cc1ccc(S(=O)(=O)N2CCCOC2CNC(=O)C(=O)NCc2ccncc2)cc1 (centres undefined)	-13%	-14%
O=C(CC12CC3CC(CC(C3)C1)C2)NCc1ccccc1	-3%	-8%
Cc1ccc(/C=N/NC(=O)c2ccc(N(C)S(=O)(=O)c3ccccc3)cc2)cc1	-12%	-18%
S=c1[nH]ccn1-c1ccccc1Cl	-9%	-12%
COC(=O)c1cc(S(=O)(=O)NCC2CCN(Cc3ccc(C)cc3)CC2)c[nH]1	-7%	-4%
Cc1cccc(CNc2cc(-c3ccoc3)ncn2)c1	40%[activator]	30%
Cc1sc(NC(=O)c2ccco2)c(C(=O)c2ccc(Cl)cc2)c1C	-7%	-11%
C=CCn1c(SCC(=O)NC(=O)NCCC)nnc1C1CCCCC1	-14%	/
CCOC(=O)c1c(NC(=O)C2C3C=CC(C3)C2C(=O)O)sc2c1CC(C)(C)OC2 (centres undefined)	0%	-3%
CN(c1ccccc1)S(=O)(=O)c1cccc(NC(=O)CN2CCCc3ccccc32)c1	-25%	-20%
COc1ccc(N2CCN(C3=NS(=O)(=O)C(c4cccc(Br)c4)=C3C)CC2)cc1	-12%	-7%
COc1cc(CNc2ccc3[nH]c(=O)[nH]c3c2)ccc1OCc1ccc(F)cc1Cl	-13%&-24%	?
CCN(CC)S(=O)(=O)c1nnc(NC(=O)COc2ccccc2F)s1	-1%	-1%
Cc1ccccc1-c1cc2c(nn1)-c1ccccc1C2=O	1%	-13%
C=CCn1c(O)c(/C(C)=N/N2CCCCC2)c(=O)[nH]c1=O	-2%	4%
O=C1CCC(=O)N1c1ccc(-c2nc3sc4c(c3c(=O)o2)CCC4)cc1	-7%[7.34 µM]	i[7.34 µM]
Cc1ccc(C)c(S(=O)(=O)N/N=C2/CCCc3ccccc32)c1	-7%	-13%
CC1CCN(c2c(NCc3ccc(C(=O)NCc4ccccc4)cc3)c(=O)c2=O)CC1	1%	37%[activator]
CCn1c(COc2ccccc2)nnc1SCC(=O)NC1CCCCC1	?	/
Cc1cccc(NC(=S)N2CCC(c3nc4ccccc4o3)CC2)c1C	-20%	-20%
CN1C2CCC1CC(OC(=O)c1ccc(Cl)cc1)C2 (centres undefined)	-13%	-18%
O=C(OC1CCCCC1=O)c1cccc(S(=O)(=O)N2CCOCC2)c1 (centres undefined)	-2%	-12%
O=C(Nc1ccccc1N1CCOCC1)c1cc(-c2ccncc2)nc2ccccc12	-3%	-5%
O=C(O)C1CCN(C(=O)c2ccc(S(=O)(=O)N3CCCCCC3)cc2)CC1	-13%	-14%
O=C(COC(=O)/C=C/c1nc2ccccc2s1)Nc1cccc(Cl)c1Cl	-7%	-17%
CNC(=O)c1ccsc1NC(=O)CCS(=O)(=O)c1ccccc1	-29%	?
COC(=O)c1ccc(OC(=O)c2ccc(OC)c(OC)c2)c(OC)c1	-13%	/
Cc1c(OCC(F)(F)F)ccnc1CS(=O)c1nc2ccccc2[nH]1 (centres undefined)	-23%&-19%	-25%&-22%
Cc1cc(OCC(=O)OCC(=O)N2CCCc3ccccc32)ccc1Cl	-7%	-2%
CC(=O)c1c(C)[nH]c(C(=O)Nc2cc(C)ccc2C)c1C	-5%	-7%
Cc1ccc(NC(=O)CCc2c(C)nc3c(-c4ccccc4)c(C)nn3c2C)c(C)c1	-4%	-7%
COC(=O)[C@@H]1C[C@@]2(O)[C@H](O)[C@H](O)[C@H](O)C[C@H]2N1Cc1ccc(-c2ccccc2)cc1	-12%	-4%
c1ccc2oc(CCc3nc4ccccc4o3)nc2c1	-11%	-14%
CCc1sc(Nc2ccc(C)cc2Br)nc1-c1cc2cccc(OC)c2oc1=O	-26%	-16%
O=C(Cn1nnc2ccccc21)NCc1ccccc1	-9%	/
CCc1nc2ccc(C(=O)Nc3cccc(OC)c3)cn2c1N(CC)Cc1cccc(Br)c1	-10%	-4%
O=C1CCC(=O)N1c1cccc(OS(=O)(=O)c2ccccc2)c1	-4%	-15%
CCC1CN(C(=O)N2CCC(C(=O)NCCN(C)C)CC2)c2ccccc2O1 (centres undefined)	-2%	9%
Cc1cccc(OCCNC(=O)c2cccc(Oc3ccc(C(F)(F)F)cc3[N+](=O)[O-])c2)c1	?	?
CCOc1ccccc1NC(=O)C(OC(=O)C1CC1)c1ccccc1 (centres undefined)	-13%	8%
CC(=O)NC1CC2CCCC(C1)N2C(=O)Nc1cccc(Cl)c1 (centres undefined)	-11%	i
COCc1cc(OC(=O)N(C)C)nc(-c2ccccc2)n1	-10%	i
Cc1cccc(N2CCCC2=Nc2ccc(Br)cc2C#N)c1	-22%	-29%
CCOC(=O)c1nn(-c2ccc(C)cc2)cc1O	-15%	-13%
CS(=O)(=O)N1CCN=C1SCc1ccc([N+](=O)[O-])cc1	4%	i

Copied from the list:
`Cc1ccc(NC(=O)CCc2c(C)nc3c(-c4ccccc4)c(C)nn3c2C)c(C)c1` in Vaccinia Venus shows -4%
`CCOc1ccccc1NC(=O)C(OC(=O)C1CC1)c1ccccc1` (centres undefined) in Vaccinia Venus shows -13%

Continuation.
SMILES	Vaccinia Venus	Vaccinia mCherry
CCOc1ccc(Nc2c(S(=O)(=O)c3ccc(C)cc3)cnc3ccc(OC)cc23)cc1	-23%	-30%
CCOC(=O)CN(C(=O)CNC(=O)c1cccs1)C(C(=O)NC1CCCC1)c1cccnc1 (centres undefined)	-2%	-16%
CCOC(=O)C1CCCN(C(=O)c2cc3c(=O)n(C)c4ccccc4c3n2C)C1 (centres undefined)	-5%	-7%
COC(=O)c1ccccc1S(=O)(=O)N1CCC(C(=O)Nc2ccc(N3CCOCC3)cc2)CC1	-17%	i
COc1ccc(NS(=O)(=O)c2ccc3[nH]c4c(c3c2)CCCCCC4)cc1	-19%	-14%
C=C1CCN([C@@H](C)C(=O)NCc2ccc(OC)cc2)S(=O)(=O)c2ccccc21	-4%	i
COc1ccc(OC)c2sc(N3CCN(C(=O)CCS(=O)(=O)c4ccc(F)cc4)CC3)nc12	-11%	-21%
O=C(/C=C/c1ccc(Cl)c(Cl)c1)N1CCc2ccccc21	0%	-13%
O=S(=O)(NC1CCCCC1N1CCC(O)CC1)c1ccccc1 (centres undefined)	-4%	-16%
COc1ccc(NC(=O)c2ccc3c(c2)N(C)CCS3)cc1	-17%	-23%
COC(=O)c1sccc1N/N=C/c1cccc(OC)c1O	-14%	0%
C[C@H](NC(=O)c1nc[nH]c1C(=O)N1CCN(c2ccccc2)CC1)c1ccccc1	-18%	i
COc1ccc(-c2csc3nc(-c4cccnc4)nc(Cl)c23)cc1OC	-30%	-25%
CC(C)(C)OC(=O)C[C@@H]1C/C=C\C[C@H](CC(=O)N[C@H](CO)Cc2ccccc2)C(=O)N[C@@H](Cc2ccccc2)COC1=O	?	-28%
CC1(C(=O)Nc2ccc(Cl)c(Cl)c2)CCN1Cc1cc2ccccc2o1 (centres undefined)	-8%	i
Cc1oc(-c2ccccc2F)nc1CS(=O)(=O)CC(=O)NC(C)CCc1ccccc1 (centres undefined)	-6%[7.34 µM]	i[7.34 µM]
Cc1ccc2c(c1)C(=O)N(CCCCO)C2=O	-9%	-10%
CC(C)(C)c1ccc(C(=O)NC(Cc2c[nH]c3ccccc23)C(=O)OCC(=O)c2ccccc2)cc1 (centres undefined)	-4%	-9%
O=C(NCCCNC(=O)c1ccccc1F)c1ccco1	1%	7%
COCCn1c(/C=C/c2ccccc2)nc2ccccc21	-24%	-14%
O=C(CC(NC(=O)c1ccccc1Cl)c1ccccc1)NCCc1ccc(Cl)cc1 (centres undefined)	0%	i
CCN1CCN(c2ccc(S(=O)(=O)N3CCOCC3)cc2NC(=O)/C=C/c2cccc(OC)c2OC)CC1	-17%	i
Cc1ccc(S(=O)(=O)NC(=O)NN2CC3CCCC3C2)cc1 (centres undefined)	-8%&0%&-4%	-1%&19%&-12%
O=C(NC(=S)Nc1nc2c(s1)CSc1ccccc1-2)c1ccccc1	-5%	-14%
c1ccc(-c2ccc(C3=Nn4c(nnc4-c4cccs4)SC3)cc2)cc1	-8%[7.34 µM]	-5%[7.34 µM]
CC1(c2nnc(Cc3ccccc3)o2)CC(c2ccncc2)=NO1 (centres undefined)	-13%	-16%

Some of the entries so far, in markdown.
| compound | Vaccinia Venus | Vaccinia mCherry |
| --- | --- | --- |
| Cc1ccc(N(Cc2ccccc2)C(=O)c2ccc(S(=O)(=O)N3CCOCC3)cc2)cc1 | -14% | -5% |
| O=C(Nc1ccc(F)cc1)C1CC(=O)n2c(nc3ccccc32)N1 (centres undefined) | -14% | -21% |
| Cn1c(SCC(=O)NNC(=O)Nc2ccc(Cl)cc2)nnc1-c1ccccc1 | -3% | i |
| Cc1ncoc1C(=O)NC1CCCc2c1cnn2-c1ccc(C(C)(C)C)cc1 (centres undefined) | -29% | -18% |
| COCCN(C(=O)c1cccc(N2C(=O)CCC2=O)c1)c1nc(-c2ccc([N+](=O)[O-])cc2)cs1 | -25% | -3% |
| Cc1ccc(-c2nc(C(=O)NCCCN(C)C)cc3c2[nH]c2ccccc23)cc1 | ? | ? |
| O=C(C1CCN(S(=O)(=O)c2ccc(Cl)cc2)CC1)N1CCCCCCC1 | -12% | -13% |
| O=C(NCC1(N2CCOCC2)CCCCC1)c1cccc(S(=O)(=O)N2CCc3ccccc3C2)c1 | ? | -21% |
| Cc1ccc(-c2onc(C)c2C)cc1S(=O)(=O)N1CCC(C)CC1 | ? | -27% |
| COc1cccc(C2CC(c3cccs3)=NN2C(=O)c2ccco2)c1O (centres undefined) | 4% | -9% |
| COc1ccc(CSc2nnc3[nH]c(=O)cc(N)n23)cc1 | -1% | -6% |
| Cc1nc(S(=O)(=O)c2ccc(Br)cc2)nc2c1CCC2 | -20% | -14% |
| O=S1(=O)C[C@@H](N2CCC(Cc3ccccc3)CC2)[C@H](COCc2ccccc2)N1 | -20% | -17% |
| CCN1CC(CN(C)Cc2cn(-c3ccc(C)cc3)nc2-c2ccc(F)cc2)CC1=O (centres undefined) | -14% | -17% |
| Cn1cc(-c2cc3n(n2)CCC(=O)N3CCCC(=O)NCc2ccccc2)c2ccccc21 | -8% | -19% |
| Cc1ccc(S(=O)(=O)N2CCCOC2CNC(=O)C(=O)NCc2ccncc2)cc1 (centres undefined) | -13% | -14% |
| O=C(CC12CC3CC(CC(C3)C1)C2)NCc1ccccc1 | -3% | -8% |
| Cc1ccc(/C=N/NC(=O)c2ccc(N(C)S(=O)(=O)c3ccccc3)cc2)cc1 | -12% | -18% |
| S=c1[nH]ccn1-c1ccccc1Cl | -9% | -12% |
| COC(=O)c1cc(S(=O)(=O)NCC2CCN(Cc3ccc(C)cc3)CC2)c[nH]1 | -7% | -4% |
| Cc1cccc(CNc2cc(-c3ccoc3)ncn2)c1 | 40%[activator] | 30% |
| Cc1sc(NC(=O)c2ccco2)c(C(=O)c2ccc(Cl)cc2)c1C | -7% | -11% |
| C=CCn1c(SCC(=O)NC(=O)NCCC)nnc1C1CCCCC1 | -14% | / |
| CCOC(=O)c1c(NC(=O)C2C3C=CC(C3)C2C(=O)O)sc2c1CC(C)(C)OC2 (centres undefined) | 0% | -3% |
| CN(c1ccccc1)S(=O)(=O)c1cccc(NC(=O)CN2CCCc3ccccc32)c1 | -25% | -20% |
| COc1ccc(N2CCN(C3=NS(=O)(=O)C(c4cccc(Br)c4)=C3C)CC2)cc1 | -12% | -7% |
